CHT block: inhibitors of human choline transporter CHT; CHT-expressing cells, membrane potential dye, choline response; active compounds read low; B-score at 10 µM; 310,000 tested, 0.86% active;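 active = B-score over 3 SD under the library average, and starting fluorescence ratio not unusually high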;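 also: choline stimulus applied at its EC90 after an EC20 pre-addition; B-score computed on integrated fluorescence ratio after choline addition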
Target sequence (Q9GZV3 whole entry, looked up): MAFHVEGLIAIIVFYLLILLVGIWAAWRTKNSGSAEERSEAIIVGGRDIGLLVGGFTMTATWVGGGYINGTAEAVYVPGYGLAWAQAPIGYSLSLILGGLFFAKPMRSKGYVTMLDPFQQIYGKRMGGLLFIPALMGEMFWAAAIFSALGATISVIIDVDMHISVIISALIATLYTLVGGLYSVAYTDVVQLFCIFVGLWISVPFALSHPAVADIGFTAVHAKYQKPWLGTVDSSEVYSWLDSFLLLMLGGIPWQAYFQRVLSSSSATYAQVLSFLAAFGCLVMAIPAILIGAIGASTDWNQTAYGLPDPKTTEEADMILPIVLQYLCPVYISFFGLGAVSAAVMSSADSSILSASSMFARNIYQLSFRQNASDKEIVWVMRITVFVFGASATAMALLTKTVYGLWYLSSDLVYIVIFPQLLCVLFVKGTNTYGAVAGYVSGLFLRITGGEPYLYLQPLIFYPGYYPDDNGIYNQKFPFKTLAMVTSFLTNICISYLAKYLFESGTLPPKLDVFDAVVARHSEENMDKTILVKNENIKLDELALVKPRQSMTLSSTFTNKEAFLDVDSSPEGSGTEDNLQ
Calls only; i = inactive. Only part of the results is shown, and most or all hits are left out here.

CHT block,SMILES
i,NC(=O)C1CCN(C(c2ccccc2Cl)c2nnnn2CC2CCCO2)CC1 (centres undefined)
i,O=C(CCC1CCCN(C(=O)c2ccoc2)C1)NCc1ccc(F)c(F)c1 (centres undefined)
i,O=C(CNC(=O)c1cccs1)NCC(=O)OCc1ccccc1Br
i,COc1ccc(C(=O)/C=C/C(=O)N(Cc2ccc(F)cc2)C(C(=O)NC2CCCCC2)c2ccncc2)c(O)c1 (centres undefined)
i,CCOc1ccccc1C(=O)NCCCn1ccnc1
i,CCCCCC(=O)NC(=S)Nc1cccc(-c2nc3ncccc3o2)c1
i,CC(NC(=O)c1ccnn1C)C1CCCO1 (centres undefined)
i,CC(C)(C)c1cc(CN2CCCC(O)C2)c(O)c(C(C)(C)C)c1 (centres undefined)
i,CCOCCc1nnc(NC(=O)Cc2ccccc2)s1
i,Cc1ccc(NCc2nnc3n2CCCCC3)cc1
i,O=C(COc1ccccc1)NC1CCCCC1
i,COc1ccccc1CC(=O)Nc1ccc(S(=O)(=O)N2CCN(C)CC2)cc1
i,O=C1c2ccccc2NC(c2cccc(F)c2)N1Cc1ccco1 (centres undefined)
i,CCN(CC)S(=O)(=O)c1ccc2c(c1)N(CC(=O)NCC1CCCO1)C(=O)CO2 (centres undefined)
i,C[C@H](NC(=O)c1nc[nH]c1C(=O)N1CCNCC1)C(=O)OC(C)(C)C
i,COC(=O)c1sc2cnccc2c1N
i,COc1cnc(-c2ccccn2)nc1Oc1ccc(F)cc1F
i,CCCCC(=O)Nc1cc(OC)c(NC(=S)NC)cc1OC
i,CCOC(=O)c1ccc(NC(=O)NCCN2CCCCC2)cc1
i,CC(C)OC(=O)Nc1ccc2c(c1)N(C(=O)N1CCN(C)CC1)c1ccccc1CC2
i,COc1ccc(C2(CNC(=O)c3ccc(OCC(C)C)cc3)CCOCC2)cc1
i,CCn1c(SCC(=O)Nc2cc(C)on2)nnc1-c1ccc(S(=O)(=O)N2CCCC2)cc1
i,Cc1ccc(CNCc2ccc3c(c2)OCO3)cc1
i,CC(C)Cn1cc(C(=O)N2CCOCC2)c2c3ccccc3n(C)c2c1=O
i,COc1ccccc1NC(=S)N(C(C)C)C(C)c1ccccn1 (centres undefined)
i,Cc1ccccc1-n1c(CSC(=N)N)nc2ccccc2c1=O
i,CCc1ccccc1N(C)S(=O)(=O)c1cc(-c2cc(C)no2)ccc1OC
i,O=C(C(Sc1ccccc1)c1ccccc1)N1CCOCC1 (centres undefined)
i,CC(C)c1nnc(NC(=O)c2ccc3ccccc3c2)s1
i,CCOC(=O)C1(Cc2ccc(OC)cc2)CCN(C(=O)c2ccoc2C)CC1
i,CCCCc1c(C(=O)O)cc(OC)cc1C(=O)O
i,CCOCCCNC(=O)NC12CC3CC(CC(C3)C1)C2
i,COc1ccc(C(=O)NCC(=O)OCC(=O)Nc2c(C)n(C)n(-c3ccccc3)c2=O)cc1
i,CSc1ccc(C(=O)C2CCCN(C(=O)CN3CCOC3=O)C2)cc1 (centres undefined)
i,CC(C)CNC(=O)CN1C(=O)NC(Cc2c[nH]c3ccccc23)C1=O (centres undefined)
i,COc1cc(C(=O)NCC(=O)N/N=C\C(C)=C/c2ccccc2)cc(OC)c1OC
i,CCN(CC(=O)Nc1ccccc1Br)Cc1nc2ccccc2c(=O)[nH]1
i,Cc1cc2oc(C(=O)N(Cc3ccco3)C3CCS(=O)(=O)C3)cc(=O)c2cc1Cl (centres undefined)
i,Cc1cc(Cl)ccc1OCCCC(=O)NNC(=O)c1ccccc1O
i,O=C(NCCN1CCOCC1)c1ccc(CS(=O)(=O)c2ccc(Cl)cc2)o1
i,CN1CCCCCC1=Nc1ccc([N+](=O)[O-])cc1
i,O=C(/C=C/c1ccco1)Nc1ccccc1N1CCCC1
i,CCCCNc1cc(C(=O)O)cc(S(N)(=O)=O)c1Oc1ccccc1
i,Cn1c(N2CCOCC2)nc2c1c(=O)n(Cc1ccc(Cl)cc1)c(=O)n2C
i,COC(=O)c1cc(OC)c(OC)cc1N
i,Cc1ccccc1N(CC(=O)NC(C)(C)C)C(=O)CS(=O)CC(=O)Nc1ccc2c(c1)OCO2 (centres undefined)
i,COCCn1c(-c2cc(OC)c(OC)c(OC)c2)nc2oc3ccccc3c(=O)c2c1=O
i,Cc1ccc(NC(=O)c2cnn(-c3ccccc3)c2C)cc1C
i,N#C/C(=C1\CCCN1)c1ccc2ccccc2n1
i,COc1ccc(-c2c([C@H]3[C@H]4C=CC[C@@H](C)[C@@H]4C(=O)N3Cc3ccccc3)ccc3ccccc23)cc1OC
i,CC(=O)c1cccc(NC(=O)c2oc(C)nc2C)c1
i,CCOc1ccc2[nH]c(=O)c(CN(CCCN3CCOCC3)Cc3nnnn3Cc3ccc(OC)cc3)cc2c1
i,CC(=O)Nc1ccc(NC(=O)C2CCCN2C(=O)Nc2ccc(F)c([N+](=O)[O-])c2)cc1 (centres undefined)
i,C=CCNCC#CCOc1ccc(OC)cc1
i,Cc1ccc2oc(C(=O)N3CCN(Cc4nccn4C)CC3)c(C)c2c1
i,CCOc1ccc(NC(=O)c2cccc(-n3cnnn3)c2)cc1
i,CCN(CC)c1ccc(/C=N/Nc2nn[nH]n2)cc1
i,CN(Cc1ccccc1)C(=O)c1nn2cccnc2c1Cl
i,Cc1csc2c(SCC(=O)NNC(=O)C(Cl)Cl)ncnc12
i,Nc1nonc1-n1nnc(C(=O)N/N=C/c2ccncc2)c1CSc1ccc(Cl)cc1

The listing continues:
CHT block,SMILES
i,COC(=O)c1ccccc1NC(=O)C1CC=CCC1C(=O)O (centres undefined)
i,C/C(=C/c1oc2ccc(O)cc2c1[N+](=O)[O-])N(C)C
i,O=C(O)C1C2C=CC(C2)C1C(=O)NCCc1cccc(Cl)c1 (centres undefined)
i,NC(=O)C1CCCN(Cc2c(C(=O)N3CCc4ccccc4C3)nc3ccc(Cl)cn23)C1 (centres undefined)
i,C[C@@H]1CC[C@@]2(O[C@H](CCO)C[C@@H](O)[C@@H]2O)O1
i,CCCc1c(C(=O)N/N=C/c2ccc(OCc3ccccc3)c(OC)c2)nnn1-c1nonc1N
i,COc1ccccc1-c1nnc(NC(=O)c2cccc(N3C(=O)CCC3=O)c2)o1
i,Cc1cc(C(=O)NCc2cccnc2)cs1
i,CCOc1ccc(Nc2nc(Cc3nnc(SCC(N)=O)o3)cs2)cc1
i,COc1ccc(C(=O)OCC(=O)Nc2cccc(C(C)=O)c2)c(OC)c1OC
i,CCc1cccc(NC(=O)C(NC(=O)C2CCCCC2)C(C)C)c1 (centres undefined)
i,CCCCCn1c(NC2CCCCC2)nc2c1c(=O)[nH]c(=O)n2C
i,CCC(=O)Nc1ccccc1N1CCN(S(C)(=O)=O)CC1
i,O=c1cc(-c2ccccc2)nc(SCc2ccccc2)[nH]1
i,COc1ccc(/C=C/C(=O)Nc2cccnc2)cc1OC
i,COc1cc(CNc2ccc(C)c(C)c2)cc(OC)c1OC
i,COC(=O)N1CC(c2ccccc2)CC1=O (centres undefined)
i,O=C(Cn1cc(C(F)(F)F)ccc1=O)Nc1ccccc1
i,O=[N+]([O-])c1cccc(S(=O)(=O)N2CCc3ccccc3C2)c1
i,Cc1ccc(C)c(C(=O)COC(=O)c2cc([N+](=O)[O-])ccc2N2CCOCC2)c1
i,CC(=O)C1=C(O)C(=O)N(CCC(=O)O)C1c1ccc(Cl)cc1Cl (centres undefined)
i,C=CCN1C(=O)/C(=C2/Sc3ccccc3N2C)SC1=Nc1c(C)n[nH]c1C
i,CN1N=C(C(=O)N2CCc3c([nH]c4ccccc34)C2c2ccccc2Cl)CCC1=O (centres undefined)
i,CC(=O)NO
i,O=C(NCCO)c1cc(-c2cc(C(=O)NCCO)c3ccccc3n2)nc2ccccc12
i,COc1ccc(NC(=O)CSc2ncn(-c3ccccc3)n2)cc1Cl
i,O=C(COC(=O)c1ccc(S(=O)(=O)N2CCCC2)cc1)NCc1cccs1
i,CCCCNC(=O)CCC(=O)Nc1ccc2nc(N3CCN(C)CC3)cc(C)c2c1
i,CC(C)CC(=O)Nc1ccc(OCC(=O)O)cc1
i,CCN(CC(=O)N1CCN(Cc2ccccc2)CC1)S(=O)(=O)c1ccccc1
i,CCCCn1c(N)c(N(CC)C(=O)c2cccc(C)c2)c(=O)[nH]c1=O
i,CC(=O)c1sc(-c2ccc(Cl)cc2)nc1C
i,CCc1ccc(N2CC(C(=O)Nc3nccs3)CC2=O)cc1 (centres undefined)
i,O=C(CNC(=O)N1CC(=O)Nc2ccccc21)NCCc1cccc(F)c1
i,Cc1cccc(C(=O)OCc2cc3ccccc3[nH]c2=O)c1
i,CCC(=O)Oc1ccc(-c2cnc3ccccc3n2)cc1
i,Fc1ccc(NC(=S)Nc2ccccc2Cl)cc1
i,CC(=O)Nc1cccc2c1C(=O)N(c1cccc(OC(C)=O)c1)C2=O
i,O=C(COC(=O)C1CCN(S(=O)(=O)c2ccccc2)CC1)NC(=O)c1ccc(OC(F)F)cc1
i,O=C1C2=C(CCCC2)C(=O)N1CNc1ccccc1
i,O=C(NCCC1CCCCN1S(=O)(=O)c1ccccc1)C(=O)Nc1ccccc1 (centres undefined)
i,Cc1ccc(NC(=O)CSc2nnc(-c3ccco3)n2N)cc1F
i,CCCCS(=O)CC(O)COc1ccc(C(C)(C)C)cc1 (centres undefined)
i,O=S(=O)(c1ccc(Br)s1)N1CCCCC1
i,O=C(CN(Cc1ccccc1)C1=NCCS1)c1ccc(Cl)cc1
i,Cc1noc(C)c1S(=O)(=O)N(CC(=O)N1CCn2c1nc1ccccc12)c1ccc(C(C)C)cc1
i,Cc1cccc(NC(=O)c2cc[n+]([O-])cc2)c1C
i,COc1cc2c(cc1NS(=O)(=O)N1CCCCC1)oc1ccccc12
i,COc1ccc(NS(=O)(=O)CC(C)C)c(OC)c1
i,O=C1CCCC/C1=C/NCc1ccccc1
i,CC(CN1CCC(n2nccc2NC(=O)CCCc2ccccc2)CC1)c1ccccc1 (centres undefined)
i,COc1ccc(-c2ccc([C@H]3[C@H]4C=CC[C@@H](C)[C@@H]4C(=O)N3Cc3ccccc3)c(F)c2)cc1
i,CSc1ccccc1OCc1cc(C(=O)N2CCN(c3ncccn3)CC2)no1
i,COc1ccc(OCC(=O)N2CCN(C(=O)c3cccs3)CC2)cc1
i,CC(C)C(=O)Nc1nnc(SCC(=O)NC2CC2)s1
i,COc1ccc(S(=O)(=O)N2CCN(C)CC2)cn1
i,c1csc(-c2nn[nH]n2)c1
i,COc1ccc(OC)c(NC(=O)CSc2nc(=O)n(Cc3ccccn3)c3c2CCC3)c1
i,Cc1ccc(C(=O)Nc2ccon2)cc1S(=O)(=O)N1CCCC1
i,CCOC(=O)C1=C(c2ccccc2)OC(N)=C(C#N)C1C1CCCCC1 (centres undefined)

New compounds follow
CHT block,SMILES
i,O=C(COC(=O)[C@@H]1CCCN1C(=O)c1cccs1)NCCc1ccccc1
i,CCOC(=O)c1c(NC(C)=O)sc2c(OCCN(CC)CC)c(Br)ccc12
i,CC(C)Sc1nc2c(c(=O)n(C)c(=O)n2C)n1Cc1ccc(Cl)cc1
i,Cc1ccc(C(=O)OC2CCOC2=O)cc1NC(=O)c1ccco1 (centres undefined)
i,COc1ccc(N2Cc3cccc(C(=O)N4CCN(C(=O)c5ccco5)CC4)c3C2=O)cc1
i,Cc1cccc(NC(=O)CN2C(=O)N/C(=C/c3ccc(-c4cccc(C(=O)O)c4C)o3)C2=O)c1
i,O=C1C=C(Nc2ccccc2)CC(c2ccccc2)C1 (centres undefined)
i,S=C(c1ccc(OCc2ccccc2)cc1)N1CCCC1
i,CC(=O)Nc1ccc(NC(=O)c2cccc3ccccc23)cc1
i,O=C(NCc1ccc(Cl)cc1)c1cc2c(nc3sccn32)s1
i,CN(C)S(=O)(=O)c1ccc(-c2csc(-c3cccnc3)n2)cc1
i,COc1ccc(OC)c(-n2c(=S)[nH]c3c(sc(=S)n3-c3ccccc3C)c2=O)c1
i,CC(=O)ON1C(C)(C)Cc2noc(N)c2C1(C)C
i,Cc1cccc(NC(=O)Cn2cccc2)c1
i,CC(=O)NCCC(=O)Nc1cc(S(=O)(=O)N2CCCCC2)ccc1N1CCN(C)CC1
i,CSc1ncc(Cl)c(C(=O)Nc2cc(C)ccc2C)n1
i,CN(C)c1ccc(/C=N/NC(=O)C(O)c2ccc(Br)cc2)cc1 (centres undefined)
i,COc1ccc(C(C(=O)NC2CCCC2)N(C(=O)c2snc(-c3ccc(F)cc3)c2N)c2cccc(F)c2)cc1 (centres undefined)

Grouped by structure: the entries above containing a Cl atom
CHT block,SMILES
i,NC(=O)C1CCN(C(c2ccccc2Cl)c2nnnn2CC2CCCO2)CC1 (centres undefined)
i,Cc1cc2oc(C(=O)N(Cc3ccco3)C3CCS(=O)(=O)C3)cc(=O)c2cc1Cl (centres undefined)
i,Cc1cc(Cl)ccc1OCCCC(=O)NNC(=O)c1ccccc1O
i,O=C(NCCN1CCOCC1)c1ccc(CS(=O)(=O)c2ccc(Cl)cc2)o1
i,Cn1c(N2CCOCC2)nc2c1c(=O)n(Cc1ccc(Cl)cc1)c(=O)n2C
i,CN(Cc1ccccc1)C(=O)c1nn2cccnc2c1Cl
i,Cc1csc2c(SCC(=O)NNC(=O)C(Cl)Cl)ncnc12
i,Nc1nonc1-n1nnc(C(=O)N/N=C/c2ccncc2)c1CSc1ccc(Cl)cc1
i,O=C(O)C1C2C=CC(C2)C1C(=O)NCCc1cccc(Cl)c1 (centres undefined)
i,NC(=O)C1CCCN(Cc2c(C(=O)N3CCc4ccccc4C3)nc3ccc(Cl)cn23)C1 (centres undefined)
i,CC(=O)C1=C(O)C(=O)N(CCC(=O)O)C1c1ccc(Cl)cc1Cl (centres undefined)
i,CN1N=C(C(=O)N2CCc3c([nH]c4ccccc34)C2c2ccccc2Cl)CCC1=O (centres undefined)
i,COc1ccc(NC(=O)CSc2ncn(-c3ccccc3)n2)cc1Cl
i,CC(=O)c1sc(-c2ccc(Cl)cc2)nc1C
i,Fc1ccc(NC(=S)Nc2ccccc2Cl)cc1
i,O=C(CN(Cc1ccccc1)C1=NCCS1)c1ccc(Cl)cc1
i,CC(C)Sc1nc2c(c(=O)n(C)c(=O)n2C)n1Cc1ccc(Cl)cc1
i,O=C(NCc1ccc(Cl)cc1)c1cc2c(nc3sccn32)s1
i,CSc1ncc(Cl)c(C(=O)Nc2cc(C)ccc2C)n1

Fetched by compound from the list above (2):
CHT block,SMILES
i,CC(=O)ON1C(C)(C)Cc2noc(N)c2C1(C)C
i,CCOC(=O)c1c(NC(C)=O)sc2c(OCCN(CC)CC)c(Br)ccc12

Screens deposited in PubChem BioAssay by Johns Hopkins Ion Channel Center.
